Screening results: PubChem BioAssay, Center for Chemical Genomics, University of Michigan
HIV TAR-Tat = TAR RNA-Tat peptide displacers, HIV-1, primary screen, biochemical, FRET, FAM/TAMRA-labeled Tat; HIV-1 TAR RNA, Tat peptide displacement FRET; stronger effect = higher value; z-score (concentration not given with the values); hit rate 0.6% among 100,000; AID 1259389, 2018;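 further: score is relative to mean and SD of negative controls; some compounds called inactive have numbers as strong as hits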
CDC25B CDK2 inh = primary biochemical HTRF screen for blockers of M-phase inducer phosphatase 2 binding to CDK2/cyclin A | P30305+P24941 | HTRF CDC25B-CDK2/CyclinA binding, anti-His/anti-Flag; stronger effect = higher value | z-score (no concentration beside the values) | hit rate 0.72% among 94,000;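 further: score is relative to mean and SD of negative controls; strong numbers were not always called active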
The depositor's hits bear a star; . = not tested or not shown.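 How the source made its calls: active means z-score from 3 up in half or more of its runs; inactive means the rest.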

SMILES | HIV TAR-Tat | CDC25B CDK2 inh
CC12CC(NC(=S)N1)c1cc(Br)ccc1O2 (stereo not drawn) | . | -1.4
CCCN(CCC)C(=O)NC1=C(C#N)C(CC)(CC)Cc2ccccc21 | 0.77 | -1.5
Nc1c(-c2nc(-c3ccc4c(c3)OCO4)no2)nnn1-c1ccc(Br)cc1 | 0.46 | .
O=C(CN1C(=O)CCc2cc(Br)ccc21)N1CCCCC1 | 1 | .
C=CCN1C(=O)C(O)(CC(=O)c2cc(C(C)C)ccc2C)c2ccccc21 (stereo not drawn) | . | -1.5
Cc1ccc(N2CCN(c3nc4ccccc4c4nncn34)CC2)c(C)c1 | 4.2 | .
CN1C(=O)C(C)(C)c2cc(S(=O)(=O)N(C)CC(=O)N3CCN(c4ncccn4)CC3)ccc21 | 1.5 | .
Cc1nn(CCCC(=O)NCCCN(C)C2CCCCC2)c(=O)c2cc3occc3n12 | 1 | -0.68
O=C(Nc1nc(-c2cccc3ccccc23)cs1)NC1CCCCC1 | . | -1.4
COC(=O)c1ccc(C2C(C(=O)OC3CCCCC3)=C(C)Nc3ncnn32)cc1 (stereo not drawn) | 0.94 | -0.45
c1ccc2c(CNC3CCCCC3)noc2c1 | 1.9 | .
CCOC(=O)N1CCN(c2cnn(-c3nc4ccccc4s3)c(=O)c2Cl)CC1 | 0.49 | 0.09
CCS(=O)(=O)c1nc(S(=O)(=O)c2ccc(C)cc2)c(NCCN(C)C)s1 | 0.48 | -1.1
Cc1ccccc1C1CCCN1C(=O)c1cnn2c(C(F)(F)F)cc(-c3ccco3)nc12 (stereo not drawn) | 0.6 | -1.3
Cc1nc(-c2nnc(NC(=O)c3ccco3)o2)c(C)s1 | 0.59 | -0.42
Cc1c(C(=O)N2CCCC2)c(S(=O)(=O)Nc2ccc(F)c(Cl)c2)c(C)n1C | 1.1 | .
Cc1nnc2ccc(N3CCN(c4ccc(F)cc4)CC3)nn12 | -0.75 | -2.2
CC1CC(C)CN(C(=O)CCCc2c[nH]c3ccccc23)C1 (stereo not drawn) | 1.3 | .
Fc1ccc(-c2nnc3ccc(N4CCCC4)nn23)cc1 | -0.65 | -1
Cc1cc(Sc2nnc(/N=C/N(C)C)s2)c2ccccc2n1 | . | -3.7
Cn1nnnc1SCCCNCc1ccc2c(c1)n(C)c(=O)n2C | 0.22 | -1.1
FC(F)C(F)(F)COCOCOCC(F)(F)C(F)F | . | -1.9
O=C(CSc1nccn1-c1cccc(Cl)c1)NC1CCCC1 | . | -2.8
Cc1cc2n(n1)CCC(=O)N2CC(=O)NCCCN1CCCC1=O | 0.78 | .
Cc1ccccc1C1C=C(c2ccc(Br)s2)Nc2nnnn21 (stereo not drawn) | . | -2
Cc1csc(NC2CCCCC2)[n+]1C | . | -1.4
CC1CN(S(=O)(=O)c2ccc3[nH]c4c(c3c2)CCCC4)c2ccccc2O1 (stereo not drawn) | 1.3 | .
COc1ccc(OC)c(-c2noc(Nc3ccc(F)cc3F)n2)c1 | 0.38 | .
Cn1c2c(c(=O)n(C)c1=O)CN(CCN1CCN(c3ccccc3)CC1)CN2 | -1.1 | -2.6
CCCCCOc1ccc2c3c(c(=O)oc2c1)CCC3 | . | -1.2
COc1ccc(Oc2nc(-c3cccnc3)nc3ccccc23)cc1 | . | -5.3
O=C1CCSc2ccc(S(=O)(=O)Nc3cccc(-c4ccno4)c3)cc2N1 | 0.01 | .
C=CCOc1ccc(/C=C2\N=C(c3ccc([N+](=O)[O-])cc3Cl)OC2=O)cc1OCC | . | -0.79
Cc1ccc(CN2CCc3nc(Nc4ccc5c(c4)OCO5)ncc3C2)cc1 | 0.86 | .
COc1ccc(OC)c(-n2c(SCC(=O)N3CCc4ccccc43)nc3c(c2=O)SCC3)c1 | . | -5.5
Cc1ccc(C2CC(=O)NC(SCC(=O)Nc3ccc(Br)cc3)=C2C#N)o1 (stereo not drawn) | 0.78 | 1
CO[C@H]1O[C@@H]2O[C@]3(C)CC[C@@H]4[C@@H](C)CC[C@H]([C@H]1C)[C@]24OO3 | . | -1.7
CCOC(=O)c1ccc(N2CSC3=C(C#N)C(c4ccc(SC)cc4)CC(=O)N3C2)cc1 (stereo not drawn) | -2.3 | 5.1*
Cc1ccccc1C1C=C(C(=O)O)Nc2ncnn21 (stereo not drawn) | 0.19 | -0.89
O=C(c1cccc(Cl)c1)N(Cc1ccccc1F)C1CCS(=O)(=O)C1 (stereo not drawn) | -0.61 | -2.3

Nothing new here: an excerpt of the list.
SMILES | HIV TAR-Tat | CDC25B CDK2 inh
Cn1nnnc1SCCCNCc1ccc2c(c1)n(C)c(=O)n2C | 0.22 | -1.1
FC(F)C(F)(F)COCOCOCC(F)(F)C(F)F | . | -1.9
O=C(CSc1nccn1-c1cccc(Cl)c1)NC1CCCC1 | . | -2.8
Cc1cc2n(n1)CCC(=O)N2CC(=O)NCCCN1CCCC1=O | 0.78 | .
Cc1ccccc1C1C=C(c2ccc(Br)s2)Nc2nnnn21 (stereo not drawn) | . | -2
Cc1csc(NC2CCCCC2)[n+]1C | . | -1.4
CC1CN(S(=O)(=O)c2ccc3[nH]c4c(c3c2)CCCC4)c2ccccc2O1 (stereo not drawn) | 1.3 | .

New compounds follow
SMILES | HIV TAR-Tat | CDC25B CDK2 inh
O=S(=O)(NCCc1csc(-c2cccc(F)c2)n1)c1ccccc1F | 2.4 | .
CCOC(=O)C1CCN(S(=O)(=O)c2c(C)[nH]c(C)c2C(=O)N2CCCC2)CC1 | 1 | .
Cc1ccccc1-c1nc(Cn2c(C)nc3onc(C)c3c2=O)c(C)o1 | 1.2 | .
Cc1ccc(-c2cn3ccc(C)cc3n2)cc1 | 1.2 | -1.7
COc1ccc(-c2noc(CN(C)S(=O)(=O)c3ccc(OC)cc3)n2)cc1 | 1.2 | 0.32
O=C1CCc2c1[nH]c1ccc(C3CCCCC3)cc21 | 1.3 | -2.2
CCn1ncc(C2=NOC(C(=O)Nc3cc(Cl)ccc3O)C2)c1C (stereo not drawn) | -2.9 | -0.68
COc1ccc(C(=O)NCCCOc2cccc(NC(C)=O)c2)cc1 | . | -2.5
FC(F)(F)c1cccc(CSc2n[nH]c(=S)s2)c1 | . | -0.88
Cc1cccc(-c2noc(COc3ccc(C(C)C)cc3)n2)c1 | . | -0.69
Cc1ccc(-c2noc(-c3nnn(-c4ccccc4Cl)c3N)n2)cc1 | 0.2 | .
O=S(=O)(c1ccc(-n2cnnn2)cc1)N1CCN(c2ccccn2)CC1 | 0.98 | -0.02
Cc1ccc(CNc2ccc3nncn3n2)cc1 | 1.1 | -1.4
Cn1c(=O)c2sccc2n2c(CCCC(=O)NCc3cccs3)nnc12 | 0.54 | 1.2
O=S(=O)(NCCc1csc(-c2cccc(F)c2)n1)c1ccc2c(c1)CCCC2 | 1.4 | .
CC1CCCCN1C(=O)c1nn2c(c1Cl)NC(c1ccco1)CC2C(F)(F)F (stereo not drawn) | -14 | -0.82
c1ccc2c(c1)CCN(c1ccc3nncn3n1)C2 | 3.1 | -1.2
Cn1c(SCc2cc(=O)c3cccc(F)c3[nH]2)nnc1-c1cccs1 | -2.4 | .
N#CC1=C(N)OC2=C(C(=O)CC(c3ccccc3)C2)C1c1ccc(Br)cc1 (stereo not drawn) | . | -0.18
Clc1cccc(-n2ncc3c(Nc4ccccc4)ncnc32)c1 | 0.69 | .
Cc1noc(C)c1CCNC(=O)C1CCCN(c2nn3c(=O)c4c(nc3s2)CCCC4)C1 (stereo not drawn) | 0.72 | .
O=C(O)CN(CCN(CC(=O)O)CC(=O)O)CC(=O)O | 1.2 | .
Cn1nc(NC(=O)c2ccc(CSc3ccc(Cl)cc3)o2)c2c(F)cccc21 | . | -0.37
Cc1ccc(-n2ccc(=O)c(C(=O)Nc3nnc(C)s3)n2)cc1 | 0.36 | -0.5
O=S(=O)(c1ccccc1Br)N1CCNCC1 | 1.5 | 0.09
NC1=NC2=C(CCCC2)C2(CCCCC2)S1 | . | -2.6
Cc1cc(CNS(=O)(=O)c2cccc(Cl)c2)c(C)n1-c1ccc(F)cc1 | -2.1 | .
N#CC1=C(N)Oc2c(oc(CO)cc2=O)C1c1ccc(Cl)cc1 (stereo not drawn) | . | -0.45
Cc1ccc([N+](=O)[O-])c(C(=O)N/N=C(/N)c2ccccn2)c1 | . | -1.4
COc1ccccc1OCc1nc(C#N)c(NCCc2ccccc2)o1 | -1.2 | -0.3
COc1cc(-c2noc(C3CCCN(S(=O)(=O)c4ccc(C(C)C)cc4)C3)n2)ccc1OC(C)C (stereo not drawn) | 3 | .
O=C(Nc1ccc(Cl)cc1)c1ncoc1-c1cccs1 | 0.59 | .
O=C1c2cccnc2C(=O)N1c1ccc(S(=O)(=O)NC2CCCCC2)cc1 | -0.42 | .
CSc1nc(N)c2ncn([C@@H]3O[C@H](COP(=O)(O)OP(=O)(O)OP(=O)(O)O)[C@H](O)C3O)c2n1 (stereo partly drawn) | . | -1.1
O=C(CSc1nccn(-c2ccccc2)c1=O)Nc1ccccc1F | 0.58 | .
COc1ccc(Br)c(CN2N=NC3C(=O)N(c4ccc(F)cc4)C(=O)C32)c1 (stereo not drawn) | -0.12 | -2.3
COc1cc(OC)c(OC)cc1CN1CCN(C2CCCCC2)CC1 | . | -2.1
O=c1c(SCc2ccccc2)nccn1-c1ccc(F)cc1 | -0.17 | .
O=c1[nH]c(-c2ccccc2O)nc2c1Cc1ccccc1O2 | 3.2 | 0.02
CCOC(=O)c1c(C)[nH]c(NC(=O)Nc2nnc(CC)s2)c1C | 1.4 | 2
N=c1c2c(F)cccc2ncn1NC(=O)c1ccncc1 | . | 0.83
Cn1c(C(=O)O)c(CC(=O)O)c2ccccc21 | 1.4 | 0.04
CC(C)CCNc1nc(Nc2cccc(Cl)c2)c2cnn(C)c2n1 | 1.4 | .
Cc1ccc(Nc2c(-c3ccc(C(C)C)cc3)c(=O)c2=O)cc1Cl | 3.1 | .
CCS(=O)(=O)N1CCC2(CC1)OC(=O)C(C)=C2C(=O)N1CCc2ccccc2C1 | 0.17 | .
COc1ccc(-c2nc3n(c2C(=O)Nc2nccs2)CCS3(=O)=O)cc1 | -0.28 | 0.5
COc1cc(NC(=O)NC(C)c2c(-n3cccc3)sc3c2CCN(C)C3)cc(OC)c1 (stereo not drawn) | -0.04 | .
CCOC(=O)N1CCN(C(=O)C2COc3ccccc3O2)CC1 (stereo not drawn) | -1.1 | -1.5
O=C(NC1CCCCC1)c1cnn(-c2ccc(F)cc2F)c1C1CCNCC1 | 0.54 | .
CS(=O)(=O)c1nc(S(=O)(=O)c2ccc(Cl)cc2)c(N2CCC(C(N)=O)CC2)s1 | 0.71 | -1.2
Cc1ccc2nc3sc(C(=O)NC4CC4)cc3cc2c1 | 0.29 | .
C/C(N)=N/S(=O)(=O)c1cc(Cl)c(Oc2ccc([N+](=O)[O-])cc2)c(Cl)c1 | . | 12
CC(C)(CO)NCc1ccc(F)cc1 | 0.91 | -0.84
Fc1ccc(Cc2ncon2)c(Cl)c1 | 0.2 | -2.3
O=c1[nH]cnc2c(-c3ccc(F)cc3)noc12 | 0.15 | -0.48
CC1=CC(C)(C)N(C(=O)Nc2cccc(Cl)c2)c2ccccc21 | 0.4 | 0.27
Cc1noc2ncnc(NCCCN3CCC(C)CC3)c12 | 0.48 | .
O=C(NNC(=O)c1cc2ccccc2cc1O)Nc1ccc([N+](=O)[O-])cc1 | . | -3.8
Cc1cc2c3c([nH]c2cc1S(=O)(=O)N1CCN(C)CC1)CC(C)(C)CC3=O | 0.35 | .
CCOC(=O)C1=C(C)NC2=C(C(=O)CCC2)C1c1ccccc1 (stereo not drawn) | 2.4 | -0.62
(more compounds)
SMILES | HIV TAR-Tat | CDC25B CDK2 inh
COc1ccc(OCC(O)Cn2c(N)nc3c2c(=O)[nH]c(=O)n3C)cc1 (stereo not drawn) | . | -1
COc1ccc(Cl)cc1NC(=O)c1noc2c1CCc1sccc1-2 | 1.2 | .
CCCCn1nnc2sc(-c3ccccc3)cc2c1=O | 0.09 | -1.2
CC1=C(C(=O)NCCC(C)C)C2(CCN(S(=O)(=O)c3cccs3)CC2)OC1=O | 0.04 | .
CSc1cc(C)nc2ccccc12 | . | -1.9
O=C(Nc1ccc(F)cc1F)C(=S)N1CCOCC1 | . | -0.59
N#Cc1c(-c2ccccc2)nc2n(c1=O)CCCS2 | -0.22 | -1.4
COCCCNC(=O)C1CCCN(c2nn3c(=O)c4c(nc3s2)CCCC4)C1 (stereo not drawn) | 1.4 | .
CCN(CC)C(=O)COc1ccc2oc(C)c(C(=O)OC)c2c1 | 0.78 | -1.7
Cc1cccc(C)c1Nc1c(-c2ccccn2)nc2ccc(Cl)cn12 | 0.44 | -0.17
CCOC(=O)c1cc(-c2ccc(S(=O)(=O)N3CCCCC3C)s2)on1 (stereo not drawn) | -0.31 | .
CCc1cc2c(=O)c(-c3nc4ccccc4s3)c(C(F)(F)F)oc2cc1O | 0.03 | -0.47
CC1(C)CC(=O)C2=C(C1)NC1=C(C(=O)CC(C)(C)C1)C2c1ccccc1 | 1 | 1.1
CC1CSc2ccc(S(=O)(=O)NCC3CCN(CCc4cccs4)CC3)cc2NC1=O (stereo not drawn) | 0.64 | .
CCOc1ccc(-n2ccc(=O)c(C(=O)Nc3cccnc3)n2)cc1 | -1 | -0.9
CCc1nn(C(C)C(=O)NCCCN2CCOCC2)c(=O)c2cc3occc3n12 (stereo not drawn) | 1.4 | -0.59

Some of the entries above, reformatted:
Every second line gives: HIV TAR-Tat	CDC25B CDK2 inh
- CCc1cc2c(=O)c(-c3nc4ccccc4s3)c(C(F)(F)F)oc2cc1O
  0.03	-0.47
- CC1(C)CC(=O)C2=C(C1)NC1=C(C(=O)CC(C)(C)C1)C2c1ccccc1
  1	1.1
- CCc1nn(C(C)C(=O)NCCCN2CCOCC2)c(=O)c2cc3occc3n12 (stereo not drawn)
  1.4	-0.59
- COc1ccc(OCC(O)Cn2c(N)nc3c2c(=O)[nH]c(=O)n3C)cc1 (stereo not drawn)
  .	-1
- CCN(CC)C(=O)COc1ccc2oc(C)c(C(=O)OC)c2c1
  0.78	-1.7
